High-throughput results: PubChem BioAssay, several laboratories
ugtP null kill – kills S. aureus RN4220 lacking UgtP; S. aureus RN4220 ugtP deletion, OD600 growth, 16 h; some inactives read as strong as hits; growth inhibition, % (concentration not given with the values); hit rate 0.54% among 330,000;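 active = z-score under -3 and OD600 up to 0.15 on both plates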;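 note: plate controls were untreated wells for no effect and antibiotic for full effect; wells of about 80 µL received 100 nL stock; the first replicate is given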
PrP UTR inh – inhibition of PrP 5' UTR reporter expression; AID 488862; cell-based PrP 5' UTR mRNA reporter, plate reader; inhibition, % (test concentration not listed); hit rate 0.35% among 340,000;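 active = every replicate at 50% or more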;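 note: 0 = median of the neutral control wells; tested in H4 reporter cells; numbers are from one replicate; inactives centre near -14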
Sa RN4220 lethal – kills Staphylococcus aureus RN4220. S. aureus RN4220 growth, OD600, 16 h. inhibition, % (test concentration not listed). hit rate 0.33% among 330,000. AID 1259311;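 active = z-score of -3 or lower and OD600 up to 0.18 on both plates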;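 note: plate controls were untreated cells for no effect and reference antibiotic for full effect; stock transfer was 100 nL into about 80 µL; one replicate is shown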
Mtb hypoxia inh – reduces hypoxia-regulated biosensor signal in M. tuberculosis. M. tuberculosis hypoxia-regulated fluorescent reporter, fluorescence. fluorescence inhibition, % (test concentration not listed). hit rate 0.1% among 300,000. AID 1159583;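 active = 35 to 45% if threefold the growth effect, above 45% if 1.5-fold the growth effect; inactive = the rest, general growth blockers included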;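 note: wells of about 50 µL received 100 nL stock; 0% = vehicle wells and 100% = reference inhibitor wells; whole bacteria with a GFP reporter of the hypoxia response; strong numbers were not always called active; many hits fall short of the cut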
BJeLR viability – BJeLR cell viability loss; BJeLR (HRASV12) viability, CellTiter-Glo ATP luminescence, 48 h; reference of the scale not given here; inhibition, % (no concentration beside the values); hit rate 0.17% among 300,000; AID 1554;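 active = replicate mean above 50%; inconclusive = above 50% but judged a plate artefact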;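 note: 50 nL library stock added to about 25 µL; numbers are from one replicate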
Autofluor counter – compound fluorescence in toxin protease inhibitor counterscreen; compound autofluorescence counterscreen, microsphere flow cytometry; stronger effect = higher value; fluorescence intensity (test concentration not listed); hit rate 3.1% among 360,000;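 active = at least 3 SD above the mean of all compounds, about 16000 in these data; inconclusive = too few beads counted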;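 note: 100 nL of 1 mM stock went into each well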
Mtb hypoxia inh growth – recorded beside Mtb hypoxia inh, whose call it bears; growth inhibition, %; measured here: M. tuberculosis growth (absorbance);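 0% = vehicle and 100% = reference antibiotic; read after six days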
* hit, by the source's call; ? = inconclusive; / = no result given.

SMILES	ugtP null kill	PrP UTR inh	Sa RN4220 lethal	Mtb hypoxia inh	Mtb hypoxia inh growth	BJeLR viability	Autofluor counter
Cc1cc(C)cc(NC(=O)CSc2nc(CSc3ccc(Cl)cc3)cc(=O)[nH]2)c1	-2	-3	10	6	1	-2	3732
N=c1sccn1CC(=O)Nc1cc(Cl)ccc1[N+](=O)[O-]	-2	-24	5.6	2	3	-3	4554
CC(C(=O)Nc1cccc(S(=O)(=O)N2CCOCC2)c1)N1CCN(C)CC1 (stereo unspecified)	2	-20	0.9	10	-25	3	6445
Cc1ccc(S(=O)(=O)N2[C@@H](c3ccc(Br)cc3)C(C(=O)O)=CC[C@H]2c2ccc(C(C)C)cc2)cc1	80	-5	5.3	-1	-2	/	2987
CCOc1ccc(N(CCCCO)C(=S)NC(=O)c2ccc(C)c(Br)c2)cc1	7	-4	2.5	2	-5	5	5192
OC(COc1ccccc1)CN1CCN(CC(O)COc2ccccc2)CC1 (stereo unspecified)	10	-5	-3.0	11	15	-6	4528
CCCn1nnc(NC(=O)C(c2ccccc2)c2ccccc2)n1	13	-30	7.8	16	11	5	8507
O=S(=O)(NCCC1CC1(Cl)Cl)c1ccccc1 (stereo unspecified)	3	-19	1.0	8	1	-6	3828
Cc1ccc(S(=O)(=O)NNC(=O)c2cc(C)cs2)cc1	7	-6	0.5	-4	7	1	5911
CSC(=NS(=O)(=O)c1ccc(Cl)cc1)c1ccccc1	1	/	0.2	9	2	/	/
CCC(C)n1c(NC(=O)c2ccccc2)c(C#N)c2nc3ccccc3nc21 (stereo unspecified)	-5	-8	7.5	/	/	-7	7113
CC(C)(C)OC(=O)N1CCC(Cc2cc(-c3cccnc3)no2)(C(=O)O)CC1	-7	6	3.1	6	6	14	3799

Later entries.
SMILES	ugtP null kill	PrP UTR inh	Sa RN4220 lethal	Mtb hypoxia inh	Mtb hypoxia inh growth	BJeLR viability	Autofluor counter
CCC(=O)N1CC2(CC(c3cccc(NC(=O)CC(c4ccccc4)c4ccccc4)c3)=NO2)C[C@H]1C(N)=O (stereo partly specified)	/	-25	/	/	/	-19	3547
CC(=O)Nc1ccc(NC(=O)C2CCCN(S(=O)(=O)c3ccc(Cl)cc3)C2)cc1 (stereo unspecified)	6	-5	1.5	-11	-11	-13	5829
CC(NC(=O)CSc1ncccn1)c1ccccc1 (stereo unspecified)	-7	-3	-0.2	2	10	5	10266
O=C(/C=C/c1ccccc1[N+](=O)[O-])NCCCn1ccnc1	-4	-17	-0.9	-11	13	-3	2391
CCNC(=O)C(=O)NN=Cc1cc([N+](=O)[O-])ccc1O	70	/	83	-4	0	/	/
O=C(CCCN1C(=O)/C(=C\c2ccco2)SC1=S)Nc1ccc2ccccc2c1	-11	-39	-4.7	-9	-3	11	3542
Cc1ccccc1/C=C1\OC(=O)c2ccccc21	7	-16	8.2	2	9	-3	8391
CC(C)C(=O)NC(c1ccc(Cl)cc1Cl)c1ccc2cccnc2c1O (stereo unspecified)	-7	46	23	7	-2	24	3857
COc1ccccc1C(=O)N1C(CC(=O)Nc2cc(Cl)ccc2C)C(=O)NC2CCCCC21 (stereo unspecified)	-2	-11	2.7	-6	4	3	8939
C=CCn1c(=S)[nH]c2ccccc2c1=O	1	-6	4.0	13	8	/	3841
O=S(=O)(NCC1CCCO1)c1ccc2ccccc2c1 (stereo unspecified)	12	-14	6.3	18	18	1	6989
COc1cc(C(=O)O[C@H]2C/C(C)=C/CC[C@@]3(C)O[C@@H]3[C@H](O)[C@@H]2C(C)C)cc(OC)c1OC	/	-11	/	/	/	-7	3233

Next part
SMILES	ugtP null kill	PrP UTR inh	Sa RN4220 lethal	Mtb hypoxia inh	Mtb hypoxia inh growth	BJeLR viability	Autofluor counter
O=C(CCC(=O)NC1CCCCCCC1)Nc1nnc(C(F)(F)F)s1	18	-15	8.7	6	2	-12	8566
COCCn1c(SCC(=O)Nc2cc(C)on2)nc2c(c1=O)SC(C)C2 (stereo unspecified)	11	-11	2.6	3	4	0	5195
Cc1ccc(C(=O)N2c3ccc(F)cc3CCC2C)o1 (stereo unspecified)	2	-14	6.8	5	3	-12	8075
CCC(C(=O)NCc1ccc(F)cc1)N(Cc1ccco1)C(=O)c1snc(C(N)=O)c1N (stereo unspecified)	2	-25	8.6	6	2	1	5146
CC(C)OC(=O)CSc1nc2cc3c(cc2cc1C#N)OCO3	0	-10	0.9	2	-2	-2	6517
Cc1cc(NCc2ccncc2)ccc1Br	-6	-7	3.4	11	14	1	2502
Cc1ccc2c(c1)c(C1=NC(=S)NC1=O)c(O)n2C	11	2	5.3	5	-5	-13	2600
O=C(NCc1ccccc1)C1CCCN(S(=O)(=O)c2ccc(F)cc2)C1 (stereo unspecified)	7	-10	-0.2	2	7	3	5341
CC1CCCCC1NC(=O)Cn1cccc1C(=O)c1ccccc1 (stereo unspecified)	4	-1	4.1	-2	8	-7	5104
COc1ccc(CCNC(=O)CC2Oc3ccc(Cl)cc3NC2=O)cc1OC (stereo unspecified)	0	-32	3.2	/	/	-7	5798
CC1CN(C(=O)COC(=O)c2ccccc2O)CC(C)O1 (stereo unspecified)	3	-14	1.6	-2	-5	-10	4205
CCN1CCN(c2ccc(N)c(C)c2)CC1	5	-28	7.1	0	-8	15	2373

Molecules above that have an aryl thioether with sulfur outside any ring (4):
SMILES	ugtP null kill	PrP UTR inh	Sa RN4220 lethal	Mtb hypoxia inh	Mtb hypoxia inh growth	BJeLR viability	Autofluor counter
Cc1cc(C)cc(NC(=O)CSc2nc(CSc3ccc(Cl)cc3)cc(=O)[nH]2)c1	-2	-3	10	6	1	-2	3732
CC(NC(=O)CSc1ncccn1)c1ccccc1 (stereo unspecified)	-7	-3	-0.2	2	10	5	10266
COCCn1c(SCC(=O)Nc2cc(C)on2)nc2c(c1=O)SC(C)C2 (stereo unspecified)	11	-11	2.6	3	4	0	5195
CC(C)OC(=O)CSc1nc2cc3c(cc2cc1C#N)OCO3	0	-10	0.9	2	-2	-2	6517

Next structures follow:
SMILES	ugtP null kill	PrP UTR inh	Sa RN4220 lethal	Mtb hypoxia inh	Mtb hypoxia inh growth	BJeLR viability	Autofluor counter
CCN(C(=O)COC(=O)c1cn(-c2ccccc2)nc1-c1ccccc1)C1CCS(=O)(=O)C1 (stereo unspecified)	1	-9	1.2	-2	5	-3	4546
CN1CCN(Cc2nc3ccccc3n2C)CC1	-11	-15	5.5	10	9	-2	19606*
CCc1nccn1Cc1cc(C=O)ccc1OC	6	-26	1.9	12	7	4	3847
COc1ccc(C(=O)Nc2ccc(C(=O)NCCc3ccccc3)cc2)cc1	4	-14	0.5	1	9	3	5176
COc1ccc(CC(=O)Nc2ccc(S(=O)(=O)N3CCOCC3)cc2)cc1	-5	-4	-4.8	-1	3	/	/
O=[N+]([O-])c1ccc(N2CCN(C(=S)Nc3ccc(F)cc3)CC2)cc1	4	6	13	4	8	5	4242
CCN(C(=O)c1cn(C)c(=O)c2cc(OC)c(OC)cc12)c1cc(OC)ccc1OC	4	-1	6.1	-6	0	3	4753
COc1cc(/C=C/C(=O)OCC(=O)NC(=O)NC2CCCCC2C)ccc1OC(F)F (stereo unspecified)	4	-7	1.1	0	2	/	3857
Cc1ccsc1/C=N/Nc1ncc(Cl)cc1Cl	/	-32	/	/	/	1	4495
CC(=O)c1cccc(CN2CCC(CO)(CCOc3ccccc3)CC2)c1	14	-3	2.7	12	6	-3	3779
CC(=O)C1=C(C)NC(C)=C(C(C)=O)C1c1cccs1	-13	-3	0.0	/	/	4	4167
CC(=O)Nc1c2c(nn1-c1ccc(C)cc1C)CS(=O)C2 (stereo unspecified)	8	-4	3.8	3	-12	6	4626

(listing goes on)
SMILES	ugtP null kill	PrP UTR inh	Sa RN4220 lethal	Mtb hypoxia inh	Mtb hypoxia inh growth	BJeLR viability	Autofluor counter
O=C(OCC(=O)N1CCCC1)c1c[nH]c2ccccc12	6	-25	6.9	7	3	/	6692
COc1cc(/C=C/C(=O)OCC(=O)NCCN2C(=O)CSC2=O)ccc1OC(F)F	3	-29	6.0	-3	-2	-1	4322
O=C(CCCSc1nc2ccccc2[nH]1)NCc1ccccc1Cl	12	-18	4.7	-8	-1	4	2476
CCCCOc1ccc(C(=O)NNC(=O)C2C3CCC(C3)C2C(=O)O)cc1 (stereo unspecified)	3	-3	0.8	11	1	-1	5042
Cc1ccc(-c2ccc(C(=O)O)[nH]2)cc1	-2	-49	0.8	17	5	-1	9061
O=C(NCCc1csc(-c2cccnc2)n1)c1ccc(Br)o1	-4	-11	-2.3	-12	-3	4	5901
Cc1cccc(SC2CCN(Cc3nc(CC4CC4)no3)CC2)c1	4	-19	33	1	5	9	4079
CN1CCN(S(=O)(=O)c2ccc(NC(=O)Nc3cccc(Cl)c3)cc2)CC1	2	-9	14	19	-13	-6	2472
CCC1CCCCN1C(=S)NC1CCCCC1 (stereo unspecified)	8	-20	4.7	6	7	-2	2389
COC(=O)[C@@H](NC(=O)NCc1ccco1)C(C)C	5	7	2.7	6	6	0	11303
CCOc1ccccc1NC(=O)c1ccccc1-c1ccccc1	8	-15	4.7	-2	0	-5	4073
Cc1nn(CC(=O)Nc2cc(S(=O)(=O)N3CCOCC3)ccc2Cl)c(C)c1[N+](=O)[O-]	0	/	1.4	6	-2	/	/

Continuation.
SMILES	ugtP null kill	PrP UTR inh	Sa RN4220 lethal	Mtb hypoxia inh	Mtb hypoxia inh growth	BJeLR viability	Autofluor counter
Cn1nnnc1SCCNCc1ccccc1OCc1ccc(F)cc1	1	1	9.7	2	-3	-4	4558
COc1ccc(CCNC(=O)C(C(=O)c2ccccc2)n2ccccc2=O)cc1OC (stereo unspecified)	3	-20	6.8	-2	2	0	2099
O=C(/C=C/c1cccs1)Nc1scc(-c2ccccc2)c1C(=O)O	4	-34	1.4	7	11	15	4569
CC1CN(C(C)CO)C(=O)c2cccc(NC(=O)C3CC3)c2OC1CN(C)Cc1ccc(Cl)c(Cl)c1 (stereo unspecified)	20	/	2.2	2	12	/	/
O=[N+]([O-])c1cc2c(c(CSc3nnc4ccccn34)c1)OCOC2	12	-17	3.0	1	-2	4	2492
COc1cc(CCC(=O)NCc2ccc3c(c2)OCO3)cc(OC)c1OC	5	-11	2.3	-6	0	6	3436
COCCN(CCOC)c1ncnc2c1cnn2-c1ccc(Cl)cc1	14	/	-3.3	5	13	8	10906
Cc1ccc(S(=O)(=O)NC(CCC(N)=O)C(=O)NCc2ccc3c(c2)OCO3)c(C)c1 (stereo unspecified)	5	-2	4.5	4	-5	/	?
Cc1ccc(OCC(=O)NCCCNC(=O)c2ccncc2)cc1C	6	-21	1.4	8	3	-1	3739
Cc1cc2cc(CCNC(=O)c3cccs3)c(=O)[nH]c2cc1C	11	-69	12	7	5	-1	6005
COc1cccc(NC(=O)CN2C(=O)COc3ccc(Cl)cc32)c1	-5	-10	-0.5	/	/	-7	5459
CCOC(=O)CSc1nc(-c2ccccn2)ncc1OC	4	-18	3.1	-6	9	-9	4516
CCCn1c(=S)[nH]c2ccc(C(F)(F)F)cc21	16	-10	-1.8	11	-2	9	5344

Six compounds out of the list, sorted by count of non-hydrogen atoms, lowest first.
SMILES	ugtP null kill	PrP UTR inh	Sa RN4220 lethal	Mtb hypoxia inh	Mtb hypoxia inh growth	BJeLR viability	Autofluor counter
Cc1cc2cc(CCNC(=O)c3cccs3)c(=O)[nH]c2cc1C	11	-69	12	7	5	-1	6005
COc1cccc(NC(=O)CN2C(=O)COc3ccc(Cl)cc32)c1	-5	-10	-0.5	/	/	-7	5459
COCCN(CCOC)c1ncnc2c1cnn2-c1ccc(Cl)cc1	14	/	-3.3	5	13	8	10906
Cn1nnnc1SCCNCc1ccccc1OCc1ccc(F)cc1	1	1	9.7	2	-3	-4	4558
COc1ccc(CCNC(=O)C(C(=O)c2ccccc2)n2ccccc2=O)cc1OC (stereo unspecified)	3	-20	6.8	-2	2	0	2099
CC1CN(C(C)CO)C(=O)c2cccc(NC(=O)C3CC3)c2OC1CN(C)Cc1ccc(Cl)c(Cl)c1 (stereo unspecified)	20	/	2.2	2	12	/	/
